Source: PubChem
Sa growth inh: inhibitors of Staphylococcus aureus growth at 42 °C. S. aureus RN4220 growth, OD600, 20 h; active compounds read low. relative growth, % (no concentration beside the values). 0.53% of 170,000 active;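 active means growth at 42 °C up to 50% and 20 or more points under that at 30 °C, or under 10% at both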;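 further: 300 nL library stock went into each well; scaled to the means of positive and negative controls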
GIV-Gai inh: blocks GIV peptide binding to rat Galpha-i3. percent of control (FP), % (test concentration not listed). P08753. Galpha-i3/FITC-GIV peptide fluorescence polarization, 90 min; active compounds read low; scaled: aluminum fluoride 0%, vehicle 100%. 0.42% of 210,000 active;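 active means replicate mean at 85% of control or lower, very high polarization wells dropped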;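 further: lower values mean more displacement of the GIV peptide from Galpha-i3; wells of about 15 µL received 100 nL stock; the first replicate is given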
Target sequence (P08753 whole entry, looked up): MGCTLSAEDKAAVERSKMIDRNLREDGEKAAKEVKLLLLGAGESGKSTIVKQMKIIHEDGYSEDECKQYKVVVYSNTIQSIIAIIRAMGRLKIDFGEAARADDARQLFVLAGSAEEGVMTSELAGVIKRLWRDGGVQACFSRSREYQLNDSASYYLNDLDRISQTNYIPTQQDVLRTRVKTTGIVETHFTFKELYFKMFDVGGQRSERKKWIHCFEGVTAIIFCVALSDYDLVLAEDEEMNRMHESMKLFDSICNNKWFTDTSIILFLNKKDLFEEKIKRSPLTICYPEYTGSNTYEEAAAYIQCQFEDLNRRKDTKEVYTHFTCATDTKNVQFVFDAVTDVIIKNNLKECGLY
HCMV NEC inh: inhibitors of HCMV UL50-UL53 nuclear egress complex interaction; HTRF UL50-UL53 interaction, normalized percent inhibition; inhibition, % (no concentration beside the values); 0.15% of 190,000 active;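 active means both replicates at 50% or more, plus weaker picks with an unusually low signal ratio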;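 further: stock transfer was 100 nL into about 20 µL; 0% = negative control wells and 100% = wells with untagged competitor protein; inactives centre near -12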
Sa growth inh second temp: recorded beside Sa growth inh, whose call it bears; relative growth, %; measured here: growth at 30 °C;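 optical density after 20 h as mean of two plates; 100% = untreated growth and lower means inhibition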
* hit, by the source's call; · = no result given. Random draw from the library; overall some 0.82% were active at least once.

The line under a structure holds: Sa growth inh second temp, HCMV NEC inh, GIV-Gai inh, Sa growth inh
- Cc1cc(Cl)ccc1NC(=O)CN1C(=O)CSc2ccc(S(=O)(=O)N(C)C)cc21
  85.5, ·, 101.0, 94.8
- Fc1ccc(Nc2nc(Nc3ccc(F)cc3)nc(N3CCCCC3)n2)cc1
  91.4, ·, 96.6, 103.4
- COc1ccc(-c2cc(C)no2)cc1S(=O)(=O)Nc1ccc(C)c(N(C)C)c1
  101.5, -0.1, 107.8, 89.6
- CCOc1cccc(CC(=O)N2CCc3c([nH]c4ccccc34)C2c2ccc(OC)cc2)c1OCC (configuration not stated)
  96.0, ·, 103.2, 95.3
- CC(C)Sc1nnc(NC(=O)C(C)(C)C)s1
  81.2, -22.4, 101.1, 98.2
- CCn1c(C)c(C2N3CC4(C(C)C)CN2CC(C(C)C)(C3)C4=O)c2ccccc21 (configuration not stated)
  94.9, -4.4, 101.9, 111.0
- COc1ccc2c(c1)c(C(=O)CSc1nnc3c(n1)CCCC3)c(C)n2C
  72.1, 9.7, 99.3, 91.7
- CCOc1cc2[nH]c(=O)n(CCCCC(=O)N3CCN(c4ccccc4)CC3)c(=O)c2cc1OCC
  85.0, ·, 102.1, 112.4
- CCCCn1c(=O)c(CCC(=O)OCC(=O)c2ccc3c(c2)OCCO3)nc2ccccc21
  78.5, -21.1, ·, 93.2
- CCCC1(C(=O)OC)NC(c2cc(OC)c(OC)c(OC)c2)C2C(=O)N(c3ccc(C)cc3)C(=O)C21 (configuration not stated)
  92.0, -17.3, 99.9, 100.8
- CN1C(=O)C2C(c3ccccc3)NN(C)C2C1=O (configuration not stated)
  96.6, -10.2, 110.5, 85.4
- CC(NC(=O)CSc1n[nH]c(N)n1)c1ccccc1 (configuration not stated)
  97.1, 8.8, ·, 82.8
- CCN=C1Sc2nc3ccc(OCC)cc3cc2CN1CCOC
  90.8, 16.5, 106.0, 84.6
- CCN(CC)CCCNc1ccc(-c2nnc(-c3ccc(OCC(C)C)cc3)o2)cn1
  89.3, -3.1, ·, 121.7
- C/C(=N\N)c1c(-c2ccccc2)[nH][nH]c1=O
  96.6, 11.7, ·, 118.1

Looked up by compound from above (6):
The line under a structure holds: Sa growth inh second temp, HCMV NEC inh, GIV-Gai inh, Sa growth inh
- CN1C(=O)C2C(c3ccccc3)NN(C)C2C1=O (configuration not stated)
  96.6, -10.2, 110.5, 85.4
- Fc1ccc(Nc2nc(Nc3ccc(F)cc3)nc(N3CCCCC3)n2)cc1
  91.4, ·, 96.6, 103.4
- COc1ccc2c(c1)c(C(=O)CSc1nnc3c(n1)CCCC3)c(C)n2C
  72.1, 9.7, 99.3, 91.7
- CC(NC(=O)CSc1n[nH]c(N)n1)c1ccccc1 (configuration not stated)
  97.1, 8.8, ·, 82.8
- CCN=C1Sc2nc3ccc(OCC)cc3cc2CN1CCOC
  90.8, 16.5, 106.0, 84.6
- CCOc1cc2[nH]c(=O)n(CCCCC(=O)N3CCN(c4ccccc4)CC3)c(=O)c2cc1OCC
  85.0, ·, 102.1, 112.4

Carrying on.
The line under a structure holds: Sa growth inh second temp, HCMV NEC inh, GIV-Gai inh, Sa growth inh
- CC1(C(=O)NC2CCCCC2)Cc2ccccc2C(=O)N1CCc1ccccc1 (configuration not stated)
  ·, -7.1, 100.9, ·
- Cc1ccc(-n2nc3ccc(NC(=O)COc4ccccc4C)cc3n2)cc1
  92.3, -15.5, 112.5, 100.8
- Cc1cc(C(=O)Nc2ccc(N3CCOCC3)cc2)c(C)s1
  86.3, -36.8, ·, 103.4
- C=CCC1c2cccc(C(=O)O)c2C(=O)N1c1ccc(OC)cc1 (configuration not stated)
  100.2, -7.0, 100.3, 173.7
- O=S(=O)(c1ccccc1)c1ccccc1/C=N\O
  82.2, -30.1, 105.5, 100.2
- O=C(CCn1c(=O)c2cccn2c2cccnc21)N1CCN(c2ccccn2)CC1
  87.3, -4.2, 103.8, 100.1
- COc1ccc(-n2ccn3c(CCC(=O)NCCc4c[nH]c5ccccc45)nnc3c2=O)cc1
  ·, -33.3, 98.3, ·
- O=C(Cc1cn2ccsc2n1)N/N=C/c1ccc2ncccc2c1
  91.6, -79.5, ·, 86.3
- COc1ccccc1NC(=O)Cn1c(=O)n(Cc2ccccn2)c(=O)c2sc3ccccc3c21
  94.5, ·, 103.6, 100.1
- Cc1ccc(NC(=O)CC2SC(=O)NC2=O)cc1 (configuration not stated)
  ·, -5.9, 102.1, ·
- O=C(O)CCCC(=O)Nc1ccc(Oc2ccccc2)cc1
  93.6, -10.5, 93.6, 96.9
- COc1cc(C)cc2oc(=O)c(CC(=O)NCc3cccc(Cl)c3)c(C)c12
  87.9, -32.8, 100.0, 89.8
- N#Cc1ccccc1S(=O)(=O)N1CCN(S(=O)(=O)c2ccccc2C#N)CC1
  103.1, -1.2, 102.9, 94.1
- NNC(=O)CSC(=S)N1CCCC1
  96.1, 4.1, ·, 101.5
- COc1ccc(C2CC(=O)C3=C(C2)Nc2onc(C)c2C3c2ccccc2F)cc1OC (configuration not stated)
  ·, 1.4, 107.4, ·
- COc1ccc(CN2CCN(c3ncnc4onc(-c5ccc(F)cc5)c34)CC2)c(OC)c1OC
  68.5, -16.5, 102.5, 81.7
- COc1ccc(C(CC(=O)c2ccccc2)Sc2ccccc2N)cc1 (configuration not stated)
  81.8, -23.2, 106.2, 111.3
- O=C1COc2ccc(S(=O)(=O)N3CCN(C(=O)NCCc4ccccc4)CC3)cc2N1
  ·, -4.3, 108.7, ·
- CC(NC(=O)Cn1[nH]c(=O)c2ccccc2c1=O)c1ccc(S(N)(=O)=O)cc1 (configuration not stated)
  90.8, -2.5, ·, 82.7
- COc1ccc2oc(=O)c(C(=O)N3c4ccccc4CC3C)cc2c1 (configuration not stated)
  106.9, -53.8, 107.2, 106.8
- O=c1[nH]c(SCc2cccc(F)c2)nc2c(-c3ccccc3)c[nH]c12
  ·, -34.6, 107.7, ·
- O=C(NCCN1CCOCC1)NC(c1ccccc1)c1ccccc1
  95.7, 19.9, 106.4, 94.4
- O=C1CC2C(=O)NCCN2C(=NC(=O)c2ccccc2)N1 (configuration not stated)
  96.6, 1.5, ·, 83.0
- Cc1nnc(N2CCC(C(=O)NC3CCCCC3)CC2)c2nn(-c3ccc(Cl)cc3)c(C)c12
  91.4, ·, 102.6, 89.4
- O=S(=O)(c1ccccc1)c1nc(-c2ccccc2)oc1NCC1CCCO1 (configuration not stated)
  ·, -20.9, 101.9, ·
- COc1ccc(-c2c(C)oc3cc(OC)ccc23)cc1
  89.5, ·, 97.7, 98.0
- O=C(O)CC(c1ccccc1)c1ccc2c(c1)OCO2 (configuration not stated)
  92.8, 9.4, 99.1, 110.1
- CC(C)COC(=O)C(C)Nc1n[nH]c(=S)[nH]c1=O (configuration not stated)
  88.0, -16.5, ·, 91.7
- COc1ccc(NC(=O)CSc2ncc3c(n2)-c2cc(Cl)ccc2N(Cc2ccccc2F)S3(=O)=O)cc1
  79.0, ·, 98.7, 86.2
- CCCn1c2ccccc2c2cnn(CC(=O)N(CCCOC)Cc3ccco3)c(=O)c21
  95.0, ·, 101.5, 101.7
- CN(Cc1ccccc1)c1nc2c(S(=O)(=O)c3ccccc3)nnn2c2ccccc12
  91.0, ·, 105.8, 106.3
- Cc1nn(-c2ccccc2)c(OC(=O)c2ccc(F)cc2)c1S(=O)(=O)c1ccccc1
  88.8, -0.5, 102.9, 99.7
- CC(Sc1nnc2n1CCCCC2)C(=O)c1c[nH]c2ccccc12 (configuration not stated)
  87.7, -7.4, ·, 95.5
- CN(C)C(=O)CSc1cccc2cccnc12
  88.9, -26.3, 106.2, 112.5
- COc1ccc(CCN2C(=O)CC(C(=O)Nc3ccc(C(=O)O)cc3)SC2=Nc2ccc(F)cc2)cc1 (configuration not stated)
  ·, -24.9, 99.3, ·
- Nc1c(C(=O)NCC2CC2)nsc1C(=O)O
  ·, -71.0, 97.2, ·
- Cc1ccc(-n2cc(-c3ccccc3)c3c(NCCN4CCOCC4)ncnc32)cc1
  83.9, -16.2, 101.4, 100.4
- Cc1cccc(NC(=O)c2cccc(NC3=NC4CS(=O)(=O)CC4S3)c2)c1 (configuration not stated)
  ·, -19.4, 107.2, ·
- Cc1ccccc1Nc1nnc(-c2ccc(C)c(S(=O)(=O)N3CCN(C)CC3)c2)c2ccccc12
  85.1, -29.1, 111.8, 111.8
- O=c1ccc2cc(S(=O)(=O)Nc3ccc(OC(F)(F)F)cc3)ccc2[nH]1
  84.2, ·, 107.5, 116.3
- CCCNCC1CCCO1 (configuration not stated)
  91.3, -11.8, 101.4, 96.7
- Cc1ccc(C(=O)NCc2noc(C3CCCC3)n2)cc1
  ·, 5.7, 101.1, ·
- CCCCCNC(=O)C1CCC(Cn2c(=O)c3sccc3n(CC)c2=O)CC1 (configuration not stated)
  92.2, ·, 101.5, 93.4
- C=C(C)C1CC=C(CN2CCC(C(=O)OCC)CC2)CC1 (configuration not stated)
  104.6, -7.5, 106.0, 96.5
- CCn1c(=O)cc(SCC(=O)N2CCN(c3ccccc3F)CC2)c2ccccc21
  69.5, -26.9, 98.3, 100.4
- CCN1C(=O)/C(=C\c2ccc(OC)cc2)C(C(=O)OC)=C1C
  77.1, -12.0, ·, 78.2
- O=c1c(Cl)c(Cl)cnn1Cc1ccccc1
  100.7, -60.8, 94.8, 101.1
- Cc1ccc(NC(=O)CCn2nc(-c3ccccc3)c3ccccc3c2=O)c(C)c1
  90.9, -39.4, 105.8, 103.0
- COc1cccc(C2CC(=O)Nc3c2ccc(C)c3C)c1OC (configuration not stated)
  92.9, -3.6, 102.0, 109.1
- CC(C)NC(=O)/C(=N\O)c1ccccc1
  95.3, ·, 104.1, 103.9
- COc1ccc(NC(=O)CN2C(=O)C3C4C=CC(C4)C3C2=O)cc1 (configuration not stated)
  89.2, ·, 107.3, 115.4
- O=C(O)COCC(=O)Nc1ccc2c(c1)CCC2
  101.3, 17.7, 102.4, 98.4
- CCNc1ccc(S(=O)(=O)C(F)(F)F)cc1NC(=O)C12CCC(CC1)C2
  93.1, 3.2, ·, 97.6
- O=C(Nc1ccccc1)c1cnc(N2CCCCC2)c2ccccc12
  93.5, ·, 101.0, 95.0
- COc1ccc(Nc2cc(C)c(C#N)c3nc4ccccc4n23)cc1
  95.8, ·, 109.5, 93.0
- NC(=O)c1ccccc1NC(=O)c1ccc(C(=O)N(C2CCCCC2)C2CCCCC2)cc1
  78.0, -12.6, 101.5, 92.4
- O=c1oc(-c2ccc(F)cc2)nc2sc3c(c12)CCC3
  ·, 2.8, 104.7, ·
- Cc1cc(C)cc(N2C(=O)CS(=O)(=O)C23C(=O)N(Cc2ccc(F)cc2)c2ccc(C)cc23)c1 (configuration not stated)
  96.8, ·, 100.4, 96.7
- Cc1cc(C)c(C)c(S(=O)(=O)N2CCN(CCn3c(C)csc3=O)CC2)c1C
  100.2, 9.4, ·, 108.8
- COC(=O)CC1C(=O)NC2CCCCC2N1C(=O)c1ccccc1 (configuration not stated)
  84.6, -29.9, 100.4, 92.3

The list goes on.
The line under a structure holds: Sa growth inh second temp, HCMV NEC inh, GIV-Gai inh, Sa growth inh
- Fc1ccc(C2=Nn3c(Cc4ccccc4)nnc3SC2)cc1
  79.4, -26.7, ·, 78.1
- Cc1cccc(COc2ccc(C3CC(=O)Nc4nc(N)[nH]c(=O)c43)cc2)c1 (configuration not stated)
  ·, -14.5, 99.3, ·
- C=Cn1cnc2c1c(=O)n(C)c(=O)n2C
  89.8, ·, 100.0, 99.9
- CCc1cccc(NC(=O)C(Cc2ccccc2)NS(=O)(=O)c2cccs2)c1 (configuration not stated)
  95.8, -1.4, 106.8, 94.3
- CN(C)C(=O)c1ccc(Oc2ccc(C(=O)N(C)C)cc2)cc1
  93.2, ·, 101.5, 111.0
- CC(NC(=O)c1ccc(NC(=O)c2nsc3ccccc23)cc1)c1ccccc1 (configuration not stated)
  78.9, ·, 105.1, 84.1
- CCOCC(=O)NCc1ccc(OC)cc1
  97.3, -16.2, 105.3, 130.2
- O=C(CSc1nccn1C1CCCC1)Nc1ccc(C(F)(F)F)cc1
  90.7, ·, 103.6, 99.8
- CC(C)(C)OC(=O)N1CCC(CNS(=O)(=O)c2cccc3nonc23)CC1
  91.0, -86.3, 111.1, 93.8
- OCCOc1nnnn1-c1ccccc1
  85.2, -19.6, 101.9, 108.6
- CCCCNC(=O)CSc1nc2cc3c(cc2c(=O)n1CCCC(=O)NCc1ccc2c(c1)OCO2)OCO3
  89.9, ·, 98.8, 83.1
- c1cn2cc(Cc3nnc4n3CCCCC4)nc2s1
  85.0, -11.2, ·, 93.7
- Nc1noc(Cc2c(Cl)cccc2Cl)n1
  76.8, -1.8, 97.5, 80.2
